Screening results (PubChem BioAssay)
NS1 function inh: qHTS Assay for Inhibitors of Influenza NS1 Protein Function; AID 2326, 2010; Potency, µM (doses to about 46.1 µM), for the others: at the top dose activity, positive = more growth; S. cerevisiae slowed by influenza A NS1, growth recovery by OD600; 270,000 compounds, 0.4% hits; active means well fitted rising curve with a large enough effect; inconclusive means small, poorly fitted or top-dose-only effect; inactive means no such curve, though single readings can be large or run the other way; note: nearly all actives have a fitted effect of over 50% in size
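In this qHTS, NS1 from influenza A is expressed in budding yeast, where it slows growth. Cells are switched from glucose to 2% galactose medium (pH 6.0, -URA), treated with compound, and growth recovery is read at OD600.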
SARS PLP yeast: qHTS of Yeast-based Assay for SARS-CoV PLP | S. cerevisiae expressing SARS-CoV PLpro, growth rescue; control for the full effect not named in the record | 330,000 compounds, 0.19% hits | Potency, µM (titrated, usually from 32.9 µM), inactives show at the top dose activity, positive = growth rescue | AID 485353, 2010; active means well fitted rising curve with a large enough effect; inconclusive means small, poorly fitted or top-dose-only effect; inactive means no such curve, though single readings can be large or run the other way; note: 0% is about no effect; nearly all actives have a fitted effect of over 55% in size; growth read by luminescence after 48 h
Cruzain inh noDet: qHTS Assay for Promiscuous and Specific Inhibitors of Cruzain (without detergent). Cruzipain (Trypanosoma cruzi), P25779. purified cruzain, Z-FR-AMC fluorescence, no detergent. Potency, µM, for the others: max response, negative = inhibition, usual class: inhibitors. 200,000 compounds, 2.3% hits. AID 1476, 2009;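 note: plate controls were enzyme without inhibitor for no effect and buffer without enzyme for full effect; nearly all actives have a fitted effect of over 40% in size; top concentration of the series not given in the record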
Target sequence (P25779 123-467 limits assumed): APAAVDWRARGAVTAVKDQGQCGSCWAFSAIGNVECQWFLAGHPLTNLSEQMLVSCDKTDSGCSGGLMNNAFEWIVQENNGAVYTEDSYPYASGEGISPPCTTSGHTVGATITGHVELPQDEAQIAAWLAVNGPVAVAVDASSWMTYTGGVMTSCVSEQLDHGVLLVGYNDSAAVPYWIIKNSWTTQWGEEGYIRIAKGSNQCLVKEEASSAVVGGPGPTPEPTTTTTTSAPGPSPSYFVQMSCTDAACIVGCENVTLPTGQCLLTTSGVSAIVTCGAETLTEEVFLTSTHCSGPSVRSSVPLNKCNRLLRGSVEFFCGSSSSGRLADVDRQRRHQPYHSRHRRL
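Detergent-free condition (0.00005% Triton X-100) in acetate buffer pH 5.5 with DTT. 1.5 nM enzyme and compound were pre-mixed 15 min, then 2 uM Z-FR-AMC substrate added; reaction progress from fluorescence change between first and third reads (60 s).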
Lassa entry inh: qHTS for Inhibitors of binding or entry into cells for Lassa Virus; 300,000 compounds, 1.2% hits; Lassa virus pseudotype entry inhibition, cell reporter; control for the full effect not named in the record; Potency, µM (series often up to 37.9 µM), for the others: at the highest dose activity change, negative = inhibition, actives largely listed as inhibitors; active means well fitted inhibition curve with a large enough effect; inconclusive means small, poorly fitted or top-dose-only effect, or effect the other way; inactive means flat fitted curve, though single readings scatter; tested in HEK293 cells; note: % is set by controls: 0 for no effect and ±100 for the full control effect; nearly all actives have a fitted effect of over 50% in size; luciferase read-out
RE007 growth inh: qHTS Assay for Inhibitors of the HIV-1 protein Vpr | S. pombe RE007 Vpr strain, BacTiter-Glo ATP luminescence, 24 h; control for the full effect not named in the record | Potency, µM (doses to about 92.2 µM), without a hit: at the highest dose activity change, negative = less growth | 360,000 compounds, 0.21% hits | AID 651644, 2012; active = well fitted falling curve with a large enough effect; inconclusive = small, poorly fitted or top-dose-only effect; inactive = no such curve, though single readings can be large or run the other way;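 note: % is set by controls: 0 for no effect and ±100 for the full control effect; nearly all actives have a fitted effect of over 50% in size; the assay follows cell death caused by Vpr and the record does not say whether a fall means rescue or toxicity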
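Fission yeast strain RE007, carrying one chromosomally integrated HIV-1 vpr copy, was seeded at OD 0.01 in PMG+AL medium with 23 nL pinned compound. After 24 h at 30 °C and 99% humidity, viability was read by BacTiter-Glo luminescence.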
Cruzain inh Det: qHTS Assay for Promiscuous and Specific Inhibitors of Cruzain (with detergent) | Cruzipain (Trypanosoma cruzi), P25779 | purified cruzain, Z-FR-AMC fluorescence, 0.01% Triton | Potency, µM, without a hit: max response, negative = inhibition, actives largely listed as inhibitors | 200,000 compounds, 0.43% hits;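 note: plate controls were neutral wells for no effect and buffer without enzyme for full effect; nearly all actives have a fitted effect of over 40% in size; top concentration of the series not given in the record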
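Sodium acetate buffer (100 mM, pH 5.5) containing 5 mM DTT and 0.01% Triton X-100 hosted 1.5 nM cruzain and test compound for 15 min at room temperature. Cleavage of 2 uM Z-FR-AMC was then tracked by fluorescence.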
Marburg entry inh: qHTS for inhibitors of binding or entry into cells for Marburg Virus; Marburg virus pseudotyped entry inhibition, cell reporter; control for the full effect not named in the record; about a third of the inactives were read at about 46 µM; Potency, µM (top dose mostly 37.8 µM), without a hit: at the top dose activity change, negative = inhibition, hits mostly inhibitors; 300,000 compounds, 1.8% hits; AID 540276, 2011; active = well fitted inhibition curve with a large enough effect; inconclusive = small, poorly fitted or top-dose-only effect, or effect the other way; inactive = flat fitted curve, though single readings scatter; tested in HEK293 cells; about a fifth of its hits are not listed in these tables; note: % is set by controls: 0 for no effect and ±100 for the full control effect; luciferase read-out
2A StopGo: High Throughput Screening for Foot and Mouth Disease Virus Antivirals; human cells with a luciferase reporter of 2A StopGo recoding; control for the full effect not named in the record; Potency, µM (highest dose often 57.9 µM), inactives show top-dose signal change, negative = less light; 410,000 compounds, 1.2% hits; AID 1159524, 2015; active = well fitted falling curve with a large enough effect; inconclusive = small, poorly fitted or top-dose-only effect; inactive = no such curve, though single readings can be large or run the other way; tested in HEK293T cells; note: % is set by controls: 0 for no effect and ±100 for the full control effect; nearly all actives have a fitted effect of over 45% in size; luciferase light after 4 h
* = called active by the depositor; ? = inconclusive; · = not tested or not shown; [ ] = dose if it differs, or a comment. Unless noted, calls come from the whole dose curve; as a rule, active = well fitted curve in the direction sought with a large enough effect; inconclusive = small, poorly fitted or top-dose-only effect, or another doubt; inactive = no such curve, though single readings can be large; an effect the other way counts as inactive or inconclusive. Potency is the fitted concentration of half-maximal effect.

SMILES	NS1 function inh	SARS PLP yeast	Cruzain inh noDet	Lassa entry inh	RE007 growth inh	Cruzain inh Det	Marburg entry inh	2A StopGo
COc1ccc(-c2nc3c4cnn(-c5ccccc5F)c4ncn3n2)cc1	·	·	-4%	11%[46.1 µM]	·	-0.8%	1%[46.1 µM]	32%[activator]
Cc1ccccc1CNC(=O)Cn1ncn2nc(-c3cccs3)cc2c1=O	·	·	3%	7%[46.1 µM]	·	-1.2%	?	-16%
Cc1cc(Br)ccc1S(=O)(=O)n1ccnc1C	3%	0%	·	8%[46.1 µM]	-12%	·	2%[46.1 µM]	15%
COCCNc1ccc(S(=O)(=O)N2CCCC2)cn1	·	-1%	·	1%	5%	·	2%[46.1 µM]	3%
COc1ccc(NS(=O)(=O)c2cc(NC(=O)c3cnc(C)cn3)ccc2N2CCCC2)cc1	9%	12%	?	?	·	-1.7%	?	65%[activator]
Cc1ccc(C(=O)CCS(=O)(=O)c2ccc(F)cc2)cc1	-3%	-4%	·	·	-24%	·	·	6%
Oc1cccc(C(Nc2ccccn2)c2ccc3cccnc3c2O)c1Cl (stereo unspecified)	·	·	?	?	·	-4.9%	?	-24%
Cc1ccc(C)c(C(=O)COC(=O)CN2C(=O)C3C4C=CC(C4)C3C2=O)c1 (stereo unspecified)	?	3%	·	15%[46.1 µM]	-12%	·	-6%[46.1 µM]	-5%
CCOC(=O)N1C=CC=C[C@@H]2[C@@H](N3C(=O)c4ccccc4C3=O)C(=O)N21	0%	-5%	8%	24%	5%	7.3%	29%	-13%
Cc1ccc(/C=N/NC(=S)NC2CCCCC2)o1	-9%	?	·	?	-7%	·	?	13%
N#Cc1cc(-c2ccccc2)nnc1Sc1ccc(Cl)cc1	0%	8%	0%	?	7%	-3.0%	4%	-18%
Cc1ccc(OCc2ccc(C(=O)Nc3nc4ccccc4n3C)o2)c([N+](=O)[O-])c1	8%	-2%	-22%	5%	26%	-5.9%	-1%	-6%
O=C(CN1C(=O)/C(=C\c2cccc(Br)c2)Oc2ccccc21)NCCCN1CCOCC1	0%	-5%	·	·	6%	·	·	-16%
O=C(O)c1cc2nc(-c3ccccc3)cc(C(F)(F)F)n2n1	3%	4%	-5%	17%	11%	2.5%	-3%	-17%
CC1(C)OC2OC(COC(=O)c3ccc([N+](=O)[O-])cc3)C3OC(C)(C)OC3C2O1 (stereo unspecified)	-9%	0%	9%	0%	25%	-0.4%	13%	-16%
CCCCC(=O)Nc1nnc(SCC(=O)NC2CC2)s1	-3%	-5%	·	28%	0%	·	4%[46.1 µM]	-4%
O=C(NCCCn1ccnc1)C(=O)NCC1OCCN1S(=O)(=O)c1ccc(Br)cc1 (stereo unspecified)	·	1%	·	-3%[46.1 µM]	2%	·	20%[46.1 µM]	-11%
COc1cccc(C(=O)N2CCN(CCCc3ccccc3)CC2)c1OC	-4%	7%	4%	?	-2%	-1.9%	-18%	?
N#C/C(=C(/O)c1ccc(F)cc1)c1nc2ccccc2s1	-1%	-9%	·	·	-4%	·	?	35%[activator]
CC(C)(C)C(=O)c1sc2nc(-c3cccs3)cc(C(F)(F)F)c2c1N	5%	-2%	-2%	-2%	14%	1.3%	-2%	-16%
CCC(NC(=S)NCc1ccc(F)cc1)c1ccccc1 (stereo unspecified)	-36%	1%	·	·	27%	·	·	-5%
CC1CCCN(C(=O)C(C)Nc2cc(Cl)ccc2N2CCOCC2)C1 (stereo unspecified)	0%	5%	·	9%[46.1 µM]	-10%	·	-9%[46.1 µM]	-14%
CCOc1ccc2c(c1)c(N=NC(=N)N)c(O)n2C	-4%	-2%	-9%	-30%	0%	-5.2%	-45%	-9%
CC(=O)OCCSc1c(-c2ccccc2)c2cc(Cl)ccc2[nH]c1=O	8%	15%	?	-27%	·	-8.6%	1%	?
CC(C(=O)NCc1ccco1)n1ccc2cc(S(=O)(=O)N3CCCCC3)ccc21 (stereo unspecified)	7%	29%	·	·	7%	·	·	?
N#Cc1c(-n2ccnc2)cccc1-n1ccnc1	-1%	-5%	-2%	-22%	0%	2.7%	1%	-3%
Cn1cccc1/C=C(/C#N)c1ccc(F)cc1	·	1%	·	?	-10%	·	5%	28%
O=C(NCCOCCn1c(=O)oc2ccccc21)Nc1ccc(F)cc1	·	·	16%	0%[46.1 µM]	·	0.5%	-7%[46.1 µM]	-22%
Cc1cc(=O)[nH]c(/N=C(\N)Nc2cccc3ccccc23)n1	?	6%	-12%	?	-11%	8.1%	?	-9%
Cc1ccc(C2c3[nH]c4ccccc4c3CCN2C(=O)CCc2ccccc2)cc1 (stereo unspecified)	·	·	?	3.2µM*	·	1.5%	·	-5%
O=C(c1cc2cc(Cl)ccc2oc1=O)N1CCOCC1	3%	1%	-6%	-6%	0%	-5.1%	5%[46.1 µM]	-3%
CCN1C(=O)C2(c3ccccc31)c1c(oc3ccccc3c1=O)C(=O)N2CCOC (stereo unspecified)	·	·	-3%	14%[46.1 µM]	·	-1.7%	8%[46.1 µM]	-1%
CCOc1ccc2nc(NC(=O)C3CCN(c4cnccn4)CC3)sc2c1	-1%	-4%	7%	-20%	5%	-9.0%	?	?
Cc1ccc(-c2cc(N)nc(-c3ccccc3)c2)cc1	-17%	-5%	·	-15%	-14%	·	-24%[46.1 µM]	76%[activator]
CCn1ccc(C(=O)Nc2cccc(Cl)c2)n1	-7%	1%	·	6%[46.1 µM]	-17%	·	?	11%
COc1ccc(N2CCN(C(=O)CSc3n[nH]c(-c4ccccc4)n3)CC2)cc1	·	·	-2%	-12%[46.1 µM]	·	2.9%	·	-11%
CCOc1ccc(N2C(=O)CC(SCc3nc4ccccc4[nH]3)C2=O)cc1 (stereo unspecified)	3%	-7%	·	-18%	10µM*	·	6%[46.1 µM]	-2%
Cc1cc(C)c2c(N)c(C(=O)NCC3CCCCC3)sc2n1	-8%	-7%	2%	2%	-15%	-6.3%	?	37%[activator]
COc1ccc(CCNS(=O)(=O)c2ccc(-c3ccc(=O)[nH]n3)o2)cc1OC	-3%	-2%	·	·	0%	·	·	0%
O=C(NCCCn1ccnc1)C1c2ccccc2Oc2ccccc21	4%	5%	-6%	-1%	4%	3.5%	3%	13%
CCN(C(=O)COC(=O)COc1ccc2c(c1)CCC2)c1c(N)n(Cc2ccccc2)c(=O)[nH]c1=O	·	-4%	·	13%	-3%	·	4%	-26%
COC(=O)c1sc(S(=O)(=O)NCc2ccccc2)c(C(=O)OC)c1C	-9%	·	-9%	0%	1%	0.2%	5%	74%[activator]
N/C(=N\N=C\c1ccco1)SC1CC(=O)N(c2ccccc2)C1=O (stereo unspecified)	4%	-1%	·	-5%	16%	·	?	-12%
O=C(N/N=C\C=C\c1ccco1)c1cncc(Br)c1	4%	0%	·	-11%[46.1 µM]	3%	·	-2%[46.1 µM]	-14%
CC/C(=C\c1ccc(N(C)C)cc1)c1ccncc1	·	·	·	-14%[46.1 µM]	?	·	?	-22%
CCc1ccccc1NC(=O)CNC(=O)CCNC(=O)Nc1ccccc1	·	2%	·	4%	25%	·	1%	-1%
CC(C)CNC(=O)C1CCN(S(=O)(=O)c2ccc3c(c2)OCCO3)CC1	·	3%	·	-19%	-10%	·	3%[46.1 µM]	-12%
CCN(CC)S(=O)(=O)c1ccc(C(=O)/C=C/c2ccc(-c3ccc([N+](=O)[O-])cc3)o2)cc1	?	-1%	·	·	-15%	·	·	-11%
Cc1ccc(C(=O)NCCc2nnc3ccc(SCC(=O)N4CCCC4)nn23)cc1	-5%	-1%	·	?	5%	·	7%	-7%
O=C(COC(=O)CCc1ccccc1)NC12CC3CC(CC(C3)C1)C2	-18%	0%	·	5%[46.1 µM]	-7%	·	?	14%
CCCn1c(N2CCC(Cc3ccccc3)CC2)nc2c1c(=O)[nH]c(=O)n2C	-125%	-6%	12%	?	84%	-2.2%	?	-23%
CCOc1ccccc1NC(=O)CCc1ccc(C)o1	-12%	-2%	8%	10%	-19%	-2.7%	-18%	-5%
CCN(CC)Cc1csc(C(N)=O)c1	6%	-1%	-8%	17%	-2%	1.7%	-5%	-2%
Cc1cc(-n2ccnc(NCCc3ccc(S(N)(=O)=O)cc3)c2=O)ccc1Br	·	·	-17%	-20%[46.1 µM]	·	-14%	·	?
Cc1nn(CC(=O)NC(C)c2ccccc2)c(=O)c2cc3occc3n12 (stereo unspecified)	·	·	-9%	7%[46.1 µM]	·	-2.1%	10%[46.1 µM]	0%
Cc1ccc(Cn2c(SCCN3CCCCC3)nc3c2c(=O)n(C)c(=O)n3C)cc1	-7%	1%	-2%	?	-15%	-1.7%	?	0%
COc1cc(/C=C2\C(=O)NC(=O)N(CCc3ccc(F)cc3)C2=O)ccc1O	14%	1%	2%	?	18%	-1.4%	3%	?
CCOc1cc(/C=C2\C(=O)NC(=O)N(CCc3ccc(F)cc3)C2=O)ccc1O	0.35µM*	0%	·	·	-10%	·	·	-28%
O=C(COC(=O)C12CC3CC(CC(Br)(C3)C1)C2)N1CCOCC1	·	1%	·	-12%	-3%	·	-3%[46.1 µM]	-3%
O=C(COc1ccccc1)N1CCN=C1SCc1ccccc1	·	3%	·	0%	?	·	18%[46.1 µM]	9%
CC1Cc2ccccc2N1CC(=O)Nc1ccc2c(c1)OC(F)(F)O2 (stereo unspecified)	5%	-26%	-8%	-14%	-18%	-7.4%	-27%	5%
CCOc1ccc(-n2cc(-c3ccccc3)c3c(SC(C)C(=O)OC)ncnc32)cc1 (stereo unspecified)	15%	-13%	-7%	2%	12%	-5.8%	4%	?
Cc1ccc(C)c(C(=O)Nc2ccncc2)c1	-10%	9%	·	18%	8%	·	-6%	-22%
